# Screening results: PubChem BioAssay, several laboratories
# FGF22 binding: binders of human FGF22 protein, primary screen, FGF22 synaptogenesis inhibitor project, biophysical, thermal shift, single point | Fibroblast growth factor 22 (Homo sapiens), Q9HCT0 | recombinant FGF22 thermal shift, SYPRO orange fluorescence; percent of sucrose octasulfate shift, DMSO zero | calls only at 9.99 µM | actives 1.5% (n = 340,000);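 active = melting point raised past a set limit in the mean and every replicate; inconclusive = no clear call; three in four hits are not shown here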
# Target sequence (Q9HCT0 whole entry, looked up): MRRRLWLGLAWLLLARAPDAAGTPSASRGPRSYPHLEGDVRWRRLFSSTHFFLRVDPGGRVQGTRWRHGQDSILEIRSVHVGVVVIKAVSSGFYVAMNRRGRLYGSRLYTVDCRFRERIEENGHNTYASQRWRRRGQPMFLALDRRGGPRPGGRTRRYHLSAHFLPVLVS
# rRNA inh HTS: reduced GFP signal of wild-type E. coli, primary screen, bacterial rRNA inhibitor project, GFP/RFP fluorescence, OD600, single point. E. coli WT GFP vs humanized-ribosome RFP mutants, 24 h; active compounds read low; DMSO median 0, no signal -100. GFP signal change (wild-type ribosome), % (no concentration beside the values). actives 1.6% (n = 350,000);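 active = significant combined selectivity score with lowered wild-type GFP, culture density cut under 30%, mutant RFP and density less affected; inactive = any of these conditions unmet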; note: one replicate is shown; some compounds called inactive have numbers as strong as hits
# ALR H2O2 inh: inhibitors of human ALR sulfhydryl oxidase, primary screen, biochemical, H2O2 detection, HRP-luminol luminescence, single point; AID 485317, 2010; purified ALR, DTT oxidation; FAD-linked sulfhydryl oxidase ALR (Homo sapiens), P55789; actives 3.8% (n = 290,000); inhibition, % (no concentration beside the values);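 active = mean and each replicate at 75% or more; inconclusive = only one of the two met; inactive = neither met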;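 note: stock transfer was 7.5 nL into about 7.5 µL; 0% = neutral wells and 100% = wells with inactivated enzyme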
# Target sequence (P55789 whole entry, looked up): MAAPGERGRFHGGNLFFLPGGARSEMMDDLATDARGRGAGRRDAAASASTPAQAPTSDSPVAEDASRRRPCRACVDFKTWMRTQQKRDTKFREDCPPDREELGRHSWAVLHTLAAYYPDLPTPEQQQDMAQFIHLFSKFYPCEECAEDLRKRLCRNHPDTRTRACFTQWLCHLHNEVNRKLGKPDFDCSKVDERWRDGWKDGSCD
# AF4-AF9 inh: inhibitors of AF4 peptide binding to AF9, primary screen, biochemical, AlphaScreen, biotin-AF4 peptide, FLAG-AF9, single point; Protein AF-9 (Homo sapiens), P42568; inhibition, % at 10 µM; actives 0.47% (n = 350,000); AID 651704, 2012;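 active = every replicate reaching a set inhibition limit, whatever the replicate mean, cut at about 25% in these data; inconclusive = mean inhibition reaches that limit but some replicates miss it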;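 note: 0% = plate neutral control median and 100% = total signal loss; the record names both 10 and 1 µM as test concentration; the first replicate is given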
# Target sequence (P42568 whole entry, looked up): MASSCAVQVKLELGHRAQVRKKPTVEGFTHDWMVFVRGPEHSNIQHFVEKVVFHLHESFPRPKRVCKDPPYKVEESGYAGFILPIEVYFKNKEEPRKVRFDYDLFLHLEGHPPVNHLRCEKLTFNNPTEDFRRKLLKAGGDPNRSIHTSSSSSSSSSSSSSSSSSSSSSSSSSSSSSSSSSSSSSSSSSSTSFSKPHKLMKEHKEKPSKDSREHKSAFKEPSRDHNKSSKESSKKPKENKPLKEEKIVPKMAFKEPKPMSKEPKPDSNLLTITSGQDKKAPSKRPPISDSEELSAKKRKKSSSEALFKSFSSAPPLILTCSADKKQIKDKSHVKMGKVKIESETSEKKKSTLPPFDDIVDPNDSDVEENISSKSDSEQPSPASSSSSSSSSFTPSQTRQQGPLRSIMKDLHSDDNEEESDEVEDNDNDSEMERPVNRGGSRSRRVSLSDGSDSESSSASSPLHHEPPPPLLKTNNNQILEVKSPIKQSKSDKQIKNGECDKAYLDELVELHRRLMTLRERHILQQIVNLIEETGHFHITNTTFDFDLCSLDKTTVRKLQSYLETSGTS
# Vif A3G: inhibitors of Vif binding to APOBEC3G peptide, primary screen, biochemical, TR-FRET, GST-Vif 1-94, biotin-A3G peptide, dose response retest (AID 1117319); TR-FRET GST-Vif / biotin-A3G peptide binding; higher % means a stronger effect; test concentration not given here; strong numbers were not always called active; actives 0.57% (n = 260,000); one-dose inhibition, %; IC50 in µM for titrated hits;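 active = above the screen mean plus three standard deviations and confirmed in dose response; inconclusive = results disagree or hit not tested in dose response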;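 note: Vif residues 1-94 fused to GST binding biotinylated APOBEC3G peptide 110-148; 0% = full assay without inhibitor and 100% = GST in place of GST-Vif; retest series ran down from 100 µM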
# HNF4A DNA FP: change in binding of human HNF4A to DNA, primary screen, biochemical, fluorescence polarization, FITC-DNA | 1 h | Hepatocyte nuclear factor 4-alpha (Homo sapiens), P41235 | actives 0.3% (n = 360,000) | activity change, % at 10 µM; in the data active = activity change above about 30%, passing the limit was not always enough;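 note: controls were the assay level and a saturating level of protein; the project sought stronger binding though the title names inhibitors; some compounds called inactive have numbers as strong as hits; positive values seem to mean higher polarization but the record does not say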
# E coli growth: E. coli growth inhibition, primary screen, OD600; Escherichia coli growth, 23 h; active compounds read low; OD600 absorbance (concentration not given with the values); actives 0.21% (n = 330,000); AID 1053175, 2014;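 active = OD600 absorbance below the run mean of sample wells minus 3.6 SD, in any replicate, cut at about 0.56 in these data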;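 note: stock transfer was 300 nL into about 60 µL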
# rRNA inh HTS OD600: recorded beside rRNA inh HTS, whose call it bears; OD600 change, %; measured here: OD600 growth;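 optical density of the mix in the first replicate; 0 = DMSO median and -100 = no signal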
# rRNA inh HTS RFP: second read-out of rRNA inh HTS, no call of its own (marks repeat the call); RFP signal change, %; measured here: RFP humanized mutant strains;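 first replicate; 0 = DMSO median and -100 = no signal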
# Starred values were filed as active, the others as inactive; i = inactive; ? = inconclusive; · = no result given; & = joins results of further samples. An excerpt; count on the stated rates, not on these rows.
# Start of the listing, in advance (5 entries):
SMILES,FGF22 binding,rRNA inh HTS,rRNA inh HTS OD600,rRNA inh HTS RFP,ALR H2O2 inh,AF4-AF9 inh,Vif A3G,HNF4A DNA FP,E coli growth
c1ccc2[nH]c(CCCCc3nc4ccccc4[nH]3)nc2c1,i,-5,4,-7.5,-2,-2.9,-3%,-1.2,0.61
COC(=O)c1c(NC(=O)CCN2CCOCC2)sc2c1CCCC2,i,-1,-4,1.3,-1,4.8,·,1.0,0.71
CC(C)CC(=O)N1CCC(O)(CS(=O)(=O)Cc2ccc(Cl)cc2)CC1,·,·,·,·,-14,·,1%,3.0,0.68
OC1(Cc2ccccc2)CCNCC1,i,12,7,-0.3,-6,0.9,-7%&7%,-3.7,0.69
Cc1ccccc1-c1cnc2c(c1)C(=O)N([C@H](C)CO)C[C@H](C)[C@@H](CN(C)C(=O)CC1CC1)O2,i,1,10,-4.0,·,-1.2,·,·,·

# The list itself, from the start:
SMILES,FGF22 binding,rRNA inh HTS,rRNA inh HTS OD600,rRNA inh HTS RFP,ALR H2O2 inh,AF4-AF9 inh,Vif A3G,HNF4A DNA FP,E coli growth
c1ccc2[nH]c(CCCCc3nc4ccccc4[nH]3)nc2c1,i,-5,4,-7.5,-2,-2.9,-3%,-1.2,0.61
COC(=O)c1c(NC(=O)CCN2CCOCC2)sc2c1CCCC2,i,-1,-4,1.3,-1,4.8,·,1.0,0.71
CC(C)CC(=O)N1CCC(O)(CS(=O)(=O)Cc2ccc(Cl)cc2)CC1,·,·,·,·,-14,·,1%,3.0,0.68
OC1(Cc2ccccc2)CCNCC1,i,12,7,-0.3,-6,0.9,-7%&7%,-3.7,0.69
Cc1ccccc1-c1cnc2c(c1)C(=O)N([C@H](C)CO)C[C@H](C)[C@@H](CN(C)C(=O)CC1CC1)O2,i,1,10,-4.0,·,-1.2,·,·,·
CCOC(=O)c1ccc(NC(=O)CN2C(=O)C(CC)SC(CC)C2=O)cc1 (stereo not drawn),i,-21,-19,-1.5,-18,-1.8,·,-0.1,0.69
O=C(Nc1cccc(F)c1)N1C[C@H]2[C@@H](c3ccccc31)[C@H](CO)N2C(=O)Cc1ccccn1,i,-3,3,-1.8,·,1.6,·,·,·
CC1=C(C)CC(C(=O)N2CCN(C/C=C/c3ccccc3)CC2)C(C(=O)O)C1 (stereo not drawn),i,5,-8,1.8,-2,-5.5,-6%,-2.1,0.76
Fc1ccccc1N1CCN(C(c2cccs2)c2nnnn2CCc2ccccc2)CC1 (stereo not drawn),·,·,·,·,4,·,3%,-2.4,0.77
CC1CCN(C(=O)C2CCN(S(=O)(=O)c3cccc4cccnc34)CC2)CC1,i,-5,0,1.2,1,0.5,8%,-1.0,0.64
CSc1n[nH]c(/N=C/c2oc(O)c3ccccc23)n1,i,8,15,2.2,-10,-2.4,8%,1.4,·
C[C@@H]1CN([C@@H](C)CO)C(=O)c2cc(NS(=O)(=O)c3ccc(Cl)cc3)ccc2O[C@H]1CN(C)CC1CC1,i,-2,4,-1.6,·,6.2,·,·,·
Cc1nn(C)cc1NC(=O)C[C@@H]1CC[C@@H]2[C@H](COc3ccc(NC(=O)C4CCOCC4)cc3C(=O)N2C)O1,i,1,13,0.5,·,-3.3,·,·,·
Cc1ccc2c(c1)N(C(=O)CCC(=O)N1CCC(C(N)=O)CC1)CC(C)O2 (stereo not drawn),i,1,6,3.5,-26,-10,·,2.0,0.7
CC(C)(C)n1cc(S(=O)(=O)c2ccccc2)[nH]c1=O,i,15,1,1.0,4,-11,8%,-2.5,0.61
O=C(NCc1ccncc1)c1cccc(F)c1,·,·,·,·,-2,·,27%,1.5,0.69
Cc1ccc(N2C(=O)CC(Sc3ncn[nH]3)C2=O)cc1 (stereo not drawn),·,·,·,·,45,·,3%,3.4,0.7
C/C(=N\NC(=O)Cn1nc(C)c(Br)c1C)c1cccs1,i,-23,-35,-11,-4,0.2,5%,-1.9,·
C=CCN(C(=O)c1csnn1)C(C(=O)NC1CCCCC1)c1ccccc1F (stereo not drawn),i,-3,3,1.4,-1,0.3,·,-1.6,·
C=CCn1cnc2scc(-c3ccc(C)c(C)c3)c2c1=O,i,-3,-2,0.6,·,-4.3,·,-3.6,0.72
Cn1ccsc1=NC(=O)c1ccccc1OC(F)F,i,-6,4,-3.8,2,-1.2,·,-2.2,0.67
O=C(C[C@H]1CC[C@@H]2[C@H](COC[C@@H](O)CN2Cc2ccc(Oc3ccccc3)cc2)O1)N1CCN(c2ccccc2)CC1,i,-28,-55,8.3,·,14,·,·,·
COc1ccc(-n2c(=O)c3c4c(sc3n(CC(=O)Nc3cc(C)[nH]n3)c2=O)CCC4)c(OC)c1,i,4,-1,-1.1,-2,-39,-4%,1.4,0.68
Cc1ccc(NC(=O)COC(=O)c2ccc3c(=O)n4c(nc3c2)CCC4)c(Br)c1,i,·,·,·,3,-1.4,-39%,-2.6,0.69
Cc1cc(C)c2c(N)c(-c3nc4ccccc4[nH]3)sc2n1,·,·,·,·,16,·,1%,-0.1,0.7

# Some of these compounds in order of their number in rRNA inh HTS, rising.
SMILES | rRNA inh HTS | rRNA inh HTS OD600 | rRNA inh HTS RFP | ALR H2O2 inh | AF4-AF9 inh | Vif A3G
O=C(C[C@H]1CC[C@@H]2[C@H](COC[C@@H](O)CN2Cc2ccc(Oc3ccccc3)cc2)O1)N1CCN(c2ccccc2)CC1 | -28 | -55 | 8.3 | · | 14 | ·
COC(=O)c1c(NC(=O)CCN2CCOCC2)sc2c1CCCC2 | -1 | -4 | 1.3 | -1 | 4.8 | ·
OC1(Cc2ccccc2)CCNCC1 | 12 | 7 | -0.3 | -6 | 0.9 | -7%&7%

# Remaining list, next part:
SMILES,FGF22 binding,rRNA inh HTS,rRNA inh HTS OD600,rRNA inh HTS RFP,ALR H2O2 inh,AF4-AF9 inh,Vif A3G,HNF4A DNA FP,E coli growth
O=C1Nc2ccccc2C(=O)N(C2CCCC2)C1C(=O)NC1CC1 (stereo not drawn),i,14,21,-0.9,·,·,·,-1.0,·
O=C(O)c1ccc(COc2ccc(/C=N/NC(=O)c3cccs3)cc2)cc1,i,0,1,-1.1,11,0.4,2%,5.9,·
CN(c1cc(Cl)c2c(c1)OCO2)c1cc2c(c3c1ccn3C)C1CCC2C1 (stereo not drawn),i,-14,-24,-5.0,·,12,·,4.4,·
Cc1ccc(NC(=O)CN(C)C(=O)COC(=O)c2oc3ccccc3c2C)cc1,i,-32,-58,7.6,-1,-2.2,-7%,4.6,0.71
O=C(NC(=S)NCc1ccc2c(c1)OCO2)c1ccccc1,i,-17,-28,4.1,·,6.0,·,-1.9,0.66
CCOC(=O)c1cc(-c2nnc(-c3cc(OC)c(OC)c(OC)c3)o2)c(C)nc1C,·,·,·,·,·,·,-10%,-0.9,0.74
CC(C)N(Cc1ccccc1)C(=O)COC(=O)C1CCN(S(=O)(=O)c2ccc3c(c2)OCCO3)CC1,i,-6,-10,1.7,-10,9.8,-5%,0.7,0.7
O=C(O)CCC(NC(=S)Nc1ccccc1)C(=O)O (stereo not drawn),i,7,9,0.1,·,0.5,1%,1.9,0.72
Cc1cc(NC(=O)C(C)SCC(=O)N(C)CC(=O)Nc2ccccc2Br)no1 (stereo not drawn),i,8,8,0.4,-3,-1.4,5%,-4.5,0.69
Cc1nnc2n(Cc3ccccc3)c(=O)c3c4c(sc3n12)COC(C(C)C)C4 (stereo not drawn),·,·,·,·,-9,·,-2%,0.6,0.76
Cc1cc(NS(=O)(=O)c2ccc(NC(=O)C(C)N3C(=O)c4ccccc4C3=O)cc2)nc(C)n1 (stereo not drawn),·,·,·,·,3,·,-2%&1%,1.7,0.71
c1ccc(-c2ccccc2-c2nc(-c3cccnc3)no2)cc1,·,·,·,·,4,·,-1%,-0.6,0.65
CCCn1nnnc1NC(=O)COc1ccc(Cl)c(C)c1,·,·,·,·,-5,·,·,-3.0,0.71
CCOC(=O)/C=C1\SCC(=O)N1CC(=O)NC(c1ccccc1)c1ccccc1,·,·,·,·,0,·,11%,0.6,0.7
COc1ccc(CC(=O)Nc2ccc(S(=O)(=O)Nc3ncccn3)cc2)cc1OC,i,5,7,1.7,-9,-1.4,26%,4.2,0.64
Cc1cc(C)cc(NC(=O)C(OC(=O)c2cccs2)c2ccccc2)c1 (stereo not drawn),i,-6,-1,-2.4,-3,0.1,15%,0.6,0.68
O=C(NC1CCCc2c1cnn2-c1ccc(F)cc1F)c1cnccn1 (stereo not drawn),i,2,0,-1.1,-15,-8.4,-3%,1.1,0.7
CCC(=O)N(C)C[C@H]1Oc2ncc(C#Cc3ccc(OC)cc3)cc2C(=O)N([C@H](C)CO)C[C@@H]1C,i,-3,1,1.9,·,2.6,·,·,·
CNC[C@@H]1Oc2cc(C#CCN(C)C)ccc2S(=O)(=O)N([C@H](C)CO)C[C@@H]1C,i,-1,4,2.1,·,21,·,·,·
O=S(=O)(c1ccccc1F)N1CCCCN2[C@H](CO)[C@H](c3ccc(-c4cccnc4)cc3)[C@H]2C1,i,-3,-7,2.0,·,2.7,·,·,·
CC(C)C(NS(=O)(=O)c1ccccc1F)C(=O)N1CCc2ccccc2C1 (stereo not drawn),i,-5,-12,2.6,-3,0.0,·,2.6,0.67
O=C(NC(=S)NC(CO)Cc1ccccc1)c1ccc(F)cc1 (stereo not drawn),i,-14,-23,-3.7,0,-2.1,·,-4.4,0.7
Cc1ccc(NC(=O)CN(C)C(=O)c2ccc(Cl)nc2)cc1,i,3,10,-0.3,-3,0.8,·,-2.1,0.69
Cc1ccc2c(c1)NCC(C(=O)NC1CCC(C)CC1)O2 (stereo not drawn),i,5,5,1.4,-7,-0.9,·,1.5,0.75
Cc1c(C)c2ccc(OCC(=O)N3CCC(C(=O)O)CC3)c(C)c2oc1=O,i,·,·,·,·,2.3,·,-1.1,0.77
# (list continues)
SMILES,FGF22 binding,rRNA inh HTS,rRNA inh HTS OD600,rRNA inh HTS RFP,ALR H2O2 inh,AF4-AF9 inh,Vif A3G,HNF4A DNA FP,E coli growth
Cc1cc(C)c2c3c(c(-c4ccccc4)n2n1)c(=O)n(C)c(=O)n3C,i,13,11,-0.7,·,-2.0,·,-2.4,0.72
C[C@@H]1CN([C@H](C)CO)C(=O)c2cc(-c3cncnc3)cnc2O[C@H]1CN(C)C(=O)Cc1ccccc1,i,3,13,-1.9,·,-1.0,·,·,·
CC(OC(=O)c1cccc(S(=O)(=O)N2CCOCC2)c1)C(=O)NC1CCCCC1C (stereo not drawn),i,3,5,1.1,23,-2.8,6%,2.9,0.72
Cc1cc([N+](=O)[O-])nn1CC(=O)NNC(=S)Nc1ccc([N+](=O)[O-])cc1,i,7,8,-7.5,74,7.9,?,-0.4,0.76
CCC12CN3CC(CC)(CN(C1)C3c1ccccc1Cl)C2O (stereo not drawn),·,·,·,·,-6,·,2%,-3.7,0.7
CN1C(=O)C2CN(CCc3ccccc3)CNC2N(C)C1=O (stereo not drawn),·,·,·,·,-3,·,19%,3.6,0.69
CCC(C)(C)NC(=O)C(c1ccccc1)N(Cc1cccnc1)C(=O)c1csnn1 (stereo not drawn),·,·,·,·,-4,·,30%,-3.3,0.7
COc1cc2c3nnc(-c4ccc(F)cc4)c-3cn(Cc3ccc(C)cc3)c2cc1OC,i,10,20,7.4,-11,2.5,-7%,3.9,0.76
COc1ccccc1CNc1nc(NCc2ccc3occc3c2)c2sccc2n1,i,-50,-73,-17,·,-4.8,·,2.1,·
